# Source: PubChem BioAssay (several laboratories)
# WNV NS2B-NS3 inh – WNV NS2B-NS3 proteinase inhibition; 65,000 compounds, 0.18% hits; P06935; AID 577; WNV NS2B-NS3 protease, fluorogenic substrate Ex360/Em465; active compounds read low; z-score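 (tested at a level between 10 and 100 µM)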;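 active means z-score at -3 or under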;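 further: score is relative to mean and spread of the compound wells of a plate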
# Target sequence (P06935 1371-1501 limits assumed): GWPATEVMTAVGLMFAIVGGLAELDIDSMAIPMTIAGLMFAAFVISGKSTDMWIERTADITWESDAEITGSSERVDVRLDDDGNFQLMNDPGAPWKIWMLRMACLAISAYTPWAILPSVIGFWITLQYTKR
# Target sequence (P06935 1502-1679 limits assumed): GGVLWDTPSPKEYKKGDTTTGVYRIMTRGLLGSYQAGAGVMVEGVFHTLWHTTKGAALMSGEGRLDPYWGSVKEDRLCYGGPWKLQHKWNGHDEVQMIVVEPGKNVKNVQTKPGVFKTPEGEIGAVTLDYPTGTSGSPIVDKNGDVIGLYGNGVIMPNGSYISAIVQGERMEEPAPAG
# MT1-MMP promoter – MT1-MMP gene expression reporter suppression – cell-based, luciferase reporter, luminescence (AID 618) | 87,000 compounds, 0.62% hits | calls from a first round at 10 µM; hits with a dose series show EC50 in µM | MT1-MMP promoter luciferase reporter cells, luminescence;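 active means over half of the reporter light lost at 10 µM or EC50 under 50 µM; inactive means the rest and hits that failed the dose series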;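 further: actives suppress MT1-MMP promoter-driven transcription so potencies describe inhibitors; HT1080 fibrosarcoma cells; overnight exposure; toxic or luciferase-blocking compounds were not removed from the actives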
# Hsc70 – small molecules displacing fluorescent ligand from Hsc70 – biochemical, fluorescence polarization, primary screen (AID 568). Hsc70 fluorescence polarization, probe displacement; higher % means a stronger effect; strong numbers were not always called active. one-dose displacement, % at 20 µM; IC50 in µM for titrated hits. 83,000 tested, under 10 active;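 active means displacement above 50% without optical interference and an IC50 on retest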;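 further: ATPase domain with a fluorescein-tagged ATP probe; 0% = vehicle and 100% = excess ADP; read after one hour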
# Active calls of the source: *; i = inactive; x = no result given. Only part of the results is shown; the hit share may differ from the screen's.
SMILES,WNV NS2B-NS3 inh,MT1-MMP promoter,Hsc70
CCC1(C)CC(C(CC(=O)O)c2ccc(C)cc2)CCO1 (stereo not given),x,i,16%
C=CCn1c(COc2ccccc2C)nnc1SCC(=O)O,-0.02,i,0.3%
Cc1cc(N2CCCC2)n2nc(C)c(-c3ccccc3)c2n1,1.4,i,-0.7%
CCOC(=O)c1c(NC(=O)CSc2nnc(-c3ccccc3)o2)sc(C(C)=O)c1C,x,i,-9.1%
COc1ccc2nc3c(cc2c1)c(NC(=O)C1CCCO1)nn3CC(C)C (stereo not given),-0.68,i,-6.4%
CC1=C(C(=O)OCC2CCCO2)C(c2ccccc2OC(C)C)C2=C(CC(c3ccco3)CC2=O)N1 (stereo not given),1.2,i,9.3%
COc1cc2c(cc1OC)CN(Cc1ccc(OC)c(C)c1OC)CC2,0.21,i,0.2%
O=C1NCCN/C1=C\C(=O)c1ccccc1,x,i,-3.2%
Cc1ccc(C(=O)Cn2nnc(-c3ccccc3-n3cnnn3)n2)cc1,-1.2,i,-2.9%
O=C(O)CC(C(=O)NC1CCCCC1)C1CCCO1 (stereo not given),-0.2,i,5.8%
CCOC(=O)c1c(C)n(C)c2cc(Br)c(C)cc12,x,i,-2.1%
O=S(=O)(NC1CC1)c1ccc(S(=O)(=O)N2CCN3CCCC3C2)cc1 (stereo not given),-1.4,i,-1.3%
CCCc1cc(=O)n2[nH]c(-c3cc(OC)c(OC)c(OC)c3)nc2n1,1.2,i,-1.3%
COC(=O)c1c(NC(=O)COC(=O)Cn2cnc3ccccc32)sc(C)c1C,-1.1,i,-6.0%
CCCCn1c(C(C)NC(=O)COC)nc2ccccc21 (stereo not given),0.01,i,5.7%
CN1C(=O)C(O)(CC(=O)c2cccnc2)c2ccccc21 (stereo not given),-0.46,i,-1.2%
COc1cc2[nH]c(=O)n(CCCC(=O)NCCc3ccccc3)c(=O)c2cc1OC,0.52,i,-2.6%
N#CCSc1nnc(Cc2cccs2)n1C1CCCCC1,0.74,i,-4.3%
O=C(O)CCN1C(=O)C2C3C=CC(C3)C2C1=O (stereo not given),0.26,i,-2.8%
CC(C)Cn1c2c(c(O)c(C(=O)Nc3nccs3)c1=O)CCCC2,0.72,i,-9.7%
O=C(Cc1ccccc1)Nc1c(C(=O)N2CCCCCC2)cnn1-c1ccccc1,x,i,-0.5%
CCOC(=O)N1CCC(NC(=O)Cn2cccc2C(=O)c2ccccc2)CC1,-0.47,i,0.8%
CC1(C)Cc2ccccc2-c2nnc(SCC(=O)N3CCc4ccccc43)n21,0.02,i,2.0%
O=C(c1cc2nc(C3CC3)cc(C(F)(F)F)n2n1)N1CCCC1,2.4,i,-5.0%
COc1ccc(C2C(C#N)=C(N)Oc3c2c(C)nn3-c2ccccc2)cc1Cn1nc(C)c([N+](=O)[O-])c1C (stereo not given),x,i,-2.4%
COc1ccc(-n2c(N3CCN(C)CC3)nc3sc4c(c3c2=O)CCCCC4)cc1,-0.52,i,2.0%
O=C(COc1ccccc1)Nc1ccccc1C(=O)NCc1ccco1,0.009,i,-0.4%
CCCCN1CN=C(Nc2nc3ccccc3o2)NC1,x,i,2.4%
COc1ccccc1N1CCN(C(=O)c2ccc(NC(C)=O)cc2)CC1,-0.94,i,-1.1%
Cc1ccccc1NC(=O)CSc1nnc(-c2ccco2)c(-c2ccco2)n1,x,i,-0.2%
COc1ccc(-n2c(N)c(C(=O)NCc3cccnc3)sc2=S)cc1,x,i,-0.5%
COc1cccc(CNc2ccc(F)c(Cl)c2)c1O,-1.1,i,-9.2%
CC(=O)c1cc2c(cc1NC(=O)CN1CCN(C(=O)c3ccco3)CC1)OCO2,0.03,i,0.3%
O=C(NC1CCCCCCC1)c1ccc2c(c1)N(Cc1ccc(F)cc1)C(=O)CS2=O (stereo not given),0.99,i,-3.0%
CCc1ccc(S(=O)(=O)NCc2csc(-c3ccccc3)n2)s1,-0.96,i,0.9%
O=C1CCc2cc(S(=O)(=O)N3CCC(C(=O)NCc4ccccc4Cl)CC3)ccc2N1,-0.31,i,-1.8%
O=C(Cc1ccc(-n2cccc2)cc1)NCc1cccs1,-0.2,i,-1.0%
Cc1ccc(CNC(=O)CS(=O)CC(=O)O)cc1 (stereo not given),x,i,-3.2%
Cc1ccc(S(=O)(=O)N(CC(=O)N2CCC(C)CC2)c2cccc(C)c2)cc1,x,i,-0.9%
COc1ccc(CCNC(=O)CCCn2c(=O)[nH]c3cc(OC)c(OC)cc3c2=O)cc1OC,x,i,0.4%
COc1cccc(C(O)c2cnc(C(C)C)n2C)c1OC (stereo not given),-0.91,i,4.7%
CC(=O)c1n[nH]nc1NC(=O)c1ccccc1,-0.27,i,-3.4%
CN(c1ccc(C(=O)Nc2ccccc2C(=O)N2CCOCC2)cc1)S(C)(=O)=O,x,i,-0.8%
COc1ccc(N2CC(C(=O)NCc3cccnc3)CC2=O)cc1 (stereo not given),0.34,i,-6.2%
O=C(COC(=O)CCS(=O)(=O)c1ccc(Cl)cc1)NC1CCCCC1,x,i,-5.2%
Cc1cc(C)n(-c2nc(SCC(=O)N3CCCC3)c3c4c(sc3n2)CCCC4)n1,0.27,i,0.1%
CC(C)[C@H](N)c1nnc(SC/C=C/c2ccccc2)o1,x,i,0.8%
CCOC(=O)c1sc(NCCNc2nc(C)c(C(=O)OCC)s2)nc1C,1.6,i,-13%
O=C(c1ccc(Cn2cc(Br)cn2)o1)n1cccn1,-0.94,i,-8.7%
CCOc1ccccc1C(=O)n1nc2nc(C)cc(C)c2c1N,-0.6,i,-6.8%
Cc1ccc2cc(C#N)c(N3CCCC3)nc2c1C,-0.89,i,-2.2%
CC(C)(C)NC(=O)CN(C(=O)CS(=O)CC(=O)Nc1ccc(F)cc1)c1ccccc1 (stereo not given),2,i,-7.2%
C=CCc1c(C)c(C#N)c2nc3ccccc3n2c1N1CCN(C)CC1,-0.52,i,-3.4%
CCC(C)COC(=O)C(C#N)c1nc2ccccc2nc1N1CCCCC1 (stereo not given),0.00025,i,-6.4%
COc1ccc(OC)c(NC(=O)CN(c2ccc(C(C)C)cc2)S(=O)(=O)c2c(C)noc2C)c1,-0.34,i,2.8%
O=c1c2ccccc2nc(-c2ccccc2)n1CCCn1ccnc1,-0.0091,i,0.8%
OC(CNCCc1ccccc1)c1ccccc1 (stereo not given),-0.68,i,-0.7%
COc1ccc2nc(NC(=O)c3ccc4ncsc4c3)sc2c1,-0.1,i,3.5%
CC(C)(C)C(=O)N1CCCC1C(=O)O (stereo not given),x,i,0.6%
CC(Sc1nnc2ccccn12)C(=O)N1CCc2ccccc2C1 (stereo not given),x,i,-4.3%

# 2 compounds picked at random from those above:
SMILES,WNV NS2B-NS3 inh,MT1-MMP promoter,Hsc70
COc1ccc(N2CC(C(=O)NCc3cccnc3)CC2=O)cc1 (stereo not given),0.34,i,-6.2%
COc1cccc(C(O)c2cnc(C(C)C)n2C)c1OC (stereo not given),-0.91,i,4.7%

# (more compounds)
SMILES,WNV NS2B-NS3 inh,MT1-MMP promoter,Hsc70
CCCCOC1(c2ccccc2)NC(=S)NN=C1c1ccccc1 (stereo not given),x,i,5.5%
CCOC(=O)N1CCC(NC(=O)C(Cc2ccccc2)NC(=O)C2CCCCC2)CC1 (stereo not given),-0.21,i,2.6%
CCc1cccc(C)c1NC(=O)c1cccc(N(C)C)c1,-0.35,i,-1.6%
CCN(CC)c1ccc(C2NCC(c3ccc([N+](=O)[O-])cc3)O2)cc1 (stereo not given),x,i,0.4%
O=C(c1ccc(Cl)cc1)c1c[nH]cc1-c1ccccc1,x,i,1.2%
Cc1nnc(SCC(=O)Nc2ncc(Cl)cc2Cl)n1Cc1ccccc1,x,i,-4.7%
CCOc1ccc(-n2c(SCc3ccc(C#N)cc3)nnc2-c2cccnc2)cc1,-0.06,i,-6.6%
COc1ccc(-c2noc(-c3ccccc3C(=O)N3CCOCC3)n2)cc1,x,i,-0.7%
CCc1n[nH]c2c1/C(=N/O)CCC2,0.67,i,3.8%
Cc1cc(NCCCn2ccnc2)n2nc(-c3ccc(F)cc3)cc2n1,-1.2,i,-9.2%
CCNc1nc(-c2ccc(Cl)cc2)cs1,0.14,i,-1.1%
CCC1CCCCN1CCCNC(=O)Cn1nc(-c2ccccc2)ccc1=O (stereo not given),-0.07,i,-7.9%
Cc1ccc2c(CC(=O)OCc3csc(C)n3)coc2c1,0.0064,i,8.8%
CCCn1nnc(NC(=O)c2ccc(-c3ccccc3)cc2)n1,-0.95,i,-1.8%
CCOC(=O)c1ccc(CSc2nnc(N)s2)cc1,-0.57,i,1.1%
Cc1sc2nc(CN3CCOCC3)nc(Oc3ccc(NC(=O)c4ccco4)cc3)c2c1C,-0.05,i,-9.4%
O=C1CC(c2ccco2)Sc2nc3ccccc3n21 (stereo not given),-0.13,i,2.8%
O=C(CSc1nnc(COc2ccc(Cl)cc2)o1)OC1CCCCC1,0.32,i,0.9%
COc1ccc2c(c1)C(=O)CC(c1ccccc1F)O2 (stereo not given),0.67,i,3.2%
Cc1ccc2[nH]c3c(c2c1)CCc1cn[nH]c1-3,0.05,i,3.1%

# A run of entries from the list above, as a working copy:
SMILES,WNV NS2B-NS3 inh,MT1-MMP promoter,Hsc70
CCOC(=O)c1ccc(CSc2nnc(N)s2)cc1,-0.57,i,1.1%
Cc1sc2nc(CN3CCOCC3)nc(Oc3ccc(NC(=O)c4ccco4)cc3)c2c1C,-0.05,i,-9.4%
O=C1CC(c2ccco2)Sc2nc3ccccc3n21 (stereo not given),-0.13,i,2.8%
O=C(CSc1nnc(COc2ccc(Cl)cc2)o1)OC1CCCCC1,0.32,i,0.9%
COc1ccc2c(c1)C(=O)CC(c1ccccc1F)O2 (stereo not given),0.67,i,3.2%
Cc1ccc2[nH]c3c(c2c1)CCc1cn[nH]c1-3,0.05,i,3.1%

# Additional records.
SMILES,WNV NS2B-NS3 inh,MT1-MMP promoter,Hsc70
CC(=O)OCc1cc(=O)n(C)c(=O)n1C,0.93,i,2.4%
COc1ccc(-c2noc(C)c2-c2ccc3ccccc3n2)c(O)c1,-0.39,i,3.2%
CC1CCN(C(=O)CSc2nc(N)cc(N)n2)CC1,-0.28,i,-2.2%
CCCC/C(O)=N\S(=O)(=O)c1ccc(N=NN(C)C)cc1,x,i,1.3%
O=C(C1CCCCN1S(=O)(=O)c1ccccc1)N1CCCCC1 (stereo not given),x,i,-0.5%
CCCCNC(=O)Cn1c(=O)n(C)c2ccccc21,-0.47,i,-2.2%
CNC(=O)CN(c1cc(C)ccc1OC)S(=O)(=O)c1ccc(C)cc1,1.5,i,-3.1%
CCSc1nnc(Cn2c(=O)sc3ccccc32)n1C,-0.67,i,-3.9%
CCCNC(=O)c1cnc(Sc2ncc(C(F)(F)F)cc2Cl)n1C,x,i,7.4%
O=C(Cc1ccccc1F)Nc1nc(-c2cccs2)cs1,0.09,i,-0.7%
CCOC(=O)c1sc(NC(=O)CN2CCCC2)c(C(=O)OCC)c1C,0.16,i,-4.8%
COc1cc(C(=O)CSc2nnc(-c3ccc(O)cc3)n2CC2CCCO2)ccc1NC(C)=O (stereo not given),0.89,i,-2.2%
Cc1nnc(C)n1/N=C/c1ccc(C(=O)O)cc1,x,i,-0.6%
O=C(Nc1cccc(-c2cc3ccccc3oc2=O)c1)c1ccc(Br)o1,x,i,5.2%
CC1C=CC(C)C(C(=O)O)C1C(=O)O (stereo not given),-0.96,i,1.1%
Fc1ccc(-c2csc3[n+]2CCS3)cc1,x,i,2.3%
c1ccc(CN2CCN(c3ncnc4c3[nH]c3ccccc34)CC2)cc1,-1.2,i,5.5%
N=c1c2c(-c3ccccc3)c(-c3ccccc3)oc2ncn1CCN1CCOCC1,0.74,i,3.1%
COc1ccc(CN(Cc2ccccn2)C(=O)CN2C(=O)C(C)Oc3ccccc32)cc1 (stereo not given),-0.54,i,-3.5%
Cc1c(Cl)cccc1NC(=O)CSc1nc2c(c(=O)[nH]1)CCCC2,x,i,-4.2%

# Exported with bars between the fields: part of the list above.
SMILES | WNV NS2B-NS3 inh | MT1-MMP promoter | Hsc70
CCOC(=O)c1sc(NC(=O)CN2CCCC2)c(C(=O)OCC)c1C | 0.16 | i | -4.8%
Cc1nnc(C)n1/N=C/c1ccc(C(=O)O)cc1 | x | i | -0.6%

# (listing goes on)
SMILES,WNV NS2B-NS3 inh,MT1-MMP promoter,Hsc70
Cc1ncoc1C(=O)NCc1ccccc1Cl,0.66,i,-5.8%
O=C(CSCc1cccc(CSCC(=O)Nc2ccc3ccccc3c2)n1)Nc1ccc2ccccc2c1,x,i,-1.3%
CCN(CC)CCCNC(=O)c1nn(-c2cccc(OC)c2)c(=O)c2ccccc12,-0.2,i,-4.6%
COC(=O)[C@H](CCSC)NC(=O)N1CCN(c2cccc(C(F)(F)F)c2)CC1,0.17,i,2.0%
CN(C)S(=O)(=O)c1cccc(-c2nnc(-c3ccccc3)o2)c1,x,i,0.0%
COc1cccc(/C=N/Nc2ncnc3scc(-c4ccccc4)c23)c1OC,x,i,6.4%
O=c1[nH]c2c(cc1CNCCN1CCOCC1)c(-c1cccc(F)c1)nn2-c1ccccc1,0.63,i,-5.7%
Cc1nonc1NC(=O)CSc1nc2cc(Cl)ccc2c2c1CCCC2,0.81,i,-28%
COc1ccc(C(=O)COC(=O)CN2CC(=O)Oc3ccccc32)cc1Br,3,i,-7.2%
COc1ccc(CCNC(=O)CCN2C(=O)COc3ccccc32)cc1OC,-0.45,i,-5.0%
CCN(CC)S(=O)(=O)c1ccc2[nH]cc(C(=O)NCCc3ccc(OC)c(OC)c3)c(=O)c2c1,1.9,i,7.7%
Cc1ccc(-n2nnnc2SCC(=O)Nc2ccc3c(c2)COC3=O)cc1C,1.5,i,-7.5%
